Screening results from PubChem BioAssay.
HSD17B inh – HSD17B dehydrogenase inhibition; recombinant HSD17B10, NADH fluorescence kinetic; many of its hits are not listed in these tables; hit rate 7.6% among 75,000; Potency, µM (doses to about 57.1 µM), for inactives: at the highest dose activity change, negative = inhibition, most hits filed as inhibitors; active means well fitted inhibition curve with a large enough effect; inconclusive means small, poorly fitted or top-dose-only effect; inactive means no such curve, though single readings can be large or run the other way;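 further: the protocol describes HADH2 (HSD17B10) and not the HSD17B4 of the title; nearly all actives have a fitted effect of over 70% in size; most hits overshoot -100% by far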
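Activity followed as NADH fluorescence increase (ex 360, em 450 nm) every 30 seconds for 4 min, using final 90 uM beta-hydroxybutyryl CoA and 1 mM NAD+. Recombinant His-tagged enzyme, 20 nM, pH 9.0 Tris buffer, 15 min compound preincubation.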
* = called active by the depositor; ? = inconclusive; [ ] = another dose, or the depositor's remark. On the % scale 0 is the no-effect control and ±100 the full control effect; potency means the concentration at half of the fitted maximal effect.

CCC(C)Cn1c(C)nc2ccccc21 (stereo not drawn)
  HSD17B inh: 2%

Nc1c(N2CCOCC2)cc(Cl)c2nonc12
  HSD17B inh: 9%

COc1cccc(Cn2c(=O)c(-c3cccc(F)c3)nc3cncnc32)c1
  HSD17B inh: -1%

Cc1nc2ccccc2c(=O)n1CCCO
  HSD17B inh: -9%

Cc1cc(C)cc(NC(=O)C2CCCN(S(=O)(=O)c3cnc[nH]3)C2)c1 (stereo not drawn)
  HSD17B inh: 5%

CN1CCN(c2ccnc(-c3ccoc3)n2)CC1
  HSD17B inh: 20µM*

CCOC(=O)N1CCC(NC(=O)CS(=O)(=O)Cc2nc(-c3ccccc3C)oc2C)CC1
  HSD17B inh: 3%

CCOC(=O)C1C(=O)Oc2ccc3ccccc3c2C1C1CCOC1=O (stereo not drawn)
  HSD17B inh: 18%

c1ccc2c(c1)OCC(c1csc3ncnc(N4CCOCC4)c13)O2 (stereo not drawn)
  HSD17B inh: 11%

O=C(NCc1cccnc1)C1CCN(S(=O)(=O)N2CCOCC2)CC1
  HSD17B inh: 6%

CC(C)N(Cc1nc2ccccc2[nH]1)C(C)C
  HSD17B inh: -2%

Nc1ccccc1C(=O)/C=C\c1ccc2c(c1)OCO2
  HSD17B inh: -4%[11.4 µM]

CCOC(=O)NCCc1ccc(OC)cc1
  HSD17B inh: -3%

CCOC(=O)c1oc2ccccc2c1NC(=O)Cc1cccs1
  HSD17B inh: ?

COc1cc(-c2nnc(COc3ccc4ccccc4c3)o2)cc(OC)c1OC
  HSD17B inh: ?

c1ccc(-c2noc(CN3CCN(C(c4ccccc4)c4ccccc4)CC3)n2)cc1
  HSD17B inh: 3%

O=C(c1ccc2c(c1)N(Cc1ccc(F)cc1)C(=O)CS2)N1CCOCC1
  HSD17B inh: 0%

Cc1ccc(NC(=O)CC2Oc3ccc(C)cc3NC2=O)cc1 (stereo not drawn)
  HSD17B inh: 8%

CCN1C(C)=C(C(=O)OC)C(c2ccccc2)N2C(=O)[C@@]3(C(=O)OC)O[C@@]12C1C(=O)CCCC13 (stereo partly drawn)
  HSD17B inh: 1%[11.4 µM]

C#CCC(C(=O)OC)(C(=O)OC)C(C[N+](=O)[O-])c1ccccc1 (stereo not drawn)
  HSD17B inh: -9%[11.4 µM]

Cc1noc(/C=C/N(C)C)c1S(=O)(=O)N1CCCC(C(=O)NC2CCCCC2)C1 (stereo not drawn)
  HSD17B inh: 0%

COc1ccc(N=Cc2c(O)[nH]c3ccccc23)cc1OC
  HSD17B inh: -2%

CCOP(=O)(c1c(F)c(F)c(F)c(F)c1F)C1(O)CCCCC1 (stereo not drawn)
  HSD17B inh: 2%

Cc1cc(S(=O)(=O)N(Cc2ccccc2)Cc2ccc(N(C)C)cc2)ccc1-n1cnnn1
  HSD17B inh: 2%

CCOC(=O)Nc1ccccc1C(=O)N1CCOCC1
  HSD17B inh: 10%

Cc1cc(C)cc(N(CC(=O)N2CCC(C)CC2)S(C)(=O)=O)c1
  HSD17B inh: 15%

COc1ccc(N(CC(=O)NC(C)(C)C)C(=O)c2ccco2)cc1
  HSD17B inh: 8%

COc1ccc(-n2c3c(cc(C(=O)N4CCCCC4)c2=O)C(=O)CC(C)(C)C3)cc1
  HSD17B inh: 6%

Cc1cc(C)n(-c2cccc3cccnc23)n1
  HSD17B inh: -3%

O=C(c1ccc(COc2ccc(Cl)cc2)o1)N1CCN(Cc2ccc3c(c2)OCO3)CC1
  HSD17B inh: -21%

Cc1cccc(N2C(=O)N(c3ccccc3C)C3CS(=O)(=O)CC32)c1 (stereo not drawn)
  HSD17B inh: 0%

CC1(C)CC2(CCCN3C(=O)CSC32)CCS1 (stereo not drawn)
  HSD17B inh: 5%

CC(=O)c1c(C)nc(-c2ccc(Cl)cc2)nc1N=CN(C)C
  HSD17B inh: ?

OCc1nnn(-c2cccc(C(F)(F)F)c2)c1CO
  HSD17B inh: 2%

Cn1c(=O)[nH]c(=O)c2c1nc(CN1CCOCC1)n2CCc1ccccc1
  HSD17B inh: 0%

COC(=O)c1ccccc1NC(=O)C1CCN(S(=O)(=O)c2cc(OC)ccc2OC)CC1
  HSD17B inh: ?

CCc1cccc(NC(=O)Cn2ncn3c(cc4ccccc43)c2=O)c1
  HSD17B inh: 32µM*

Cn1nnnc1SCCNC/C=C/c1ccccc1
  HSD17B inh: 16%

CCOC(=O)c1[nH]c(=O)[nH]c1CSc1ccccn1
  HSD17B inh: -11%

CC1CN(C(=O)C2CCCN2S(=O)(=O)c2ccc(Cl)cc2)CC(C)O1 (stereo not drawn)
  HSD17B inh: 10%

Cc1ccc(S(=O)(=O)n2nc(-c3cccnc3)nc2N)cc1
  HSD17B inh: 1%

COc1ccc(-c2nnc(SCC(=O)c3cccs3)o2)cc1
  HSD17B inh: -1%

O=C(O)c1ccccc1-c1nc2ccccc2c(=O)[nH]1
  HSD17B inh: 4%

CCOC(=O)N1CCC(n2c(=S)[nH]c3cc(OCC)c(OCC)cc3c2=O)CC1
  HSD17B inh: -8%

Cc1c(C(=O)Nc2ccc3c(c2)OCCO3)sc2nc(-c3ccccc3)cn12
  HSD17B inh: -7%

CC1CCC(NC(=O)Cn2c(=O)[nH]c3ccsc3c2=O)CC1 (stereo not drawn)
  HSD17B inh: -8%

O=C(N1CCOCC1)N1CCN(c2nc(-c3ccc(F)cc3)cs2)CC1
  HSD17B inh: -2%

CC(C)CCn1c(Sc2nc3ccccc3s2)nc2c1c(=O)[nH]c(=O)n2C
  HSD17B inh: -2%

Cn1c(=O)c(C(=O)CSc2nncs2)c(N)n(Cc2ccccc2)c1=O
  HSD17B inh: 11%

CC1(C)CC(C(CC(=O)O)c2ccccc2)CCO1 (stereo not drawn)
  HSD17B inh: -3%

COc1ccccc1N1C(=O)CCC1(C#N)c1ccccc1 (stereo not drawn)
  HSD17B inh: -3%

COC(=O)c1ccc(C2C(C#N)=C(N)Oc3cc(C)n(C)c(=O)c32)cc1 (stereo not drawn)
  HSD17B inh: 5%

Cn1c(=N)n(CC(=O)O)c2ccccc21
  HSD17B inh: 3%

CN1C(=O)c2cccc(N(C)C)c2C1=O
  HSD17B inh: 1%

O=C(O)C1CC=CCC1C(=O)NC12CC3CC(CC(C3)C1)C2 (stereo not drawn)
  HSD17B inh: -11%

COc1ccc(NC(=O)c2ccccc2NC(=O)c2ccco2)c(OC)c1
  HSD17B inh: 11%

CN(C)CCCNc1oc(-c2ccc(Cl)cc2)nc1C#N
  HSD17B inh: 32µM*

O=C(Cn1cc2c(n1)CCCC2)NCCCN1CCN(C2CCCCC2)CC1
  HSD17B inh: 5%

CCn1cc(C(C)NC(=O)COc2ccc(Cl)cc2C)c(C)n1 (stereo not drawn)
  HSD17B inh: 10%

O=S1(=O)C=CC(Nc2cccc(Cl)c2)C1 (stereo not drawn)
  HSD17B inh: 10%

Cc1nc2cnc(N3CCN(C)CC3)nc2n(Cc2cccs2)c1=O
  HSD17B inh: ?

Cc1cc(N2CCN(C3CCCC3)CC2)n2ncc(-c3ccccc3)c2n1
  HSD17B inh: ?

O=C(NCc1ccco1)Nc1ccc(Br)cc1Cl
  HSD17B inh: -6%

CCC(CCC(=O)Nc1cccc(C(=O)O)c1)C(=O)O (stereo not drawn)
  HSD17B inh: -6%

CCC(C(=O)N1CCN(c2cccc(Cl)c2)CC1)c1ccccc1 (stereo not drawn)
  HSD17B inh: -8%

CCCCCCN(C(=O)CCCCCN1C(=O)NC(c2ccc(-c3ccccc3)cc2)C(C(=O)OCc2ccccc2)=C1C)C(C(=O)NCCCC)c1ccc(OCC(=O)OC)cc1 (stereo not drawn)
  HSD17B inh: -8%

O=Cc1ccc(C(=O)O)cc1
  HSD17B inh: 0%

O=C(NCc1ccco1)c1cc(-c2ccncc2)nc2ccccc12
  HSD17B inh: -12%

Cc1cccc(N=C2NC(=O)CS2)c1C
  HSD17B inh: 3%

CCCCC(c1nnnn1C1CCCC1)N1CCN(C2CCCCC2)CC1 (stereo not drawn)
  HSD17B inh: -6%

Structures shown so far containing a halogen (14):
Nc1c(N2CCOCC2)cc(Cl)c2nonc12
  HSD17B inh: 9%

COc1cccc(Cn2c(=O)c(-c3cccc(F)c3)nc3cncnc32)c1
  HSD17B inh: -1%

O=C(c1ccc2c(c1)N(Cc1ccc(F)cc1)C(=O)CS2)N1CCOCC1
  HSD17B inh: 0%

CCOP(=O)(c1c(F)c(F)c(F)c(F)c1F)C1(O)CCCCC1 (stereo not drawn)
  HSD17B inh: 2%

O=C(c1ccc(COc2ccc(Cl)cc2)o1)N1CCN(Cc2ccc3c(c2)OCO3)CC1
  HSD17B inh: -21%

CC(=O)c1c(C)nc(-c2ccc(Cl)cc2)nc1N=CN(C)C
  HSD17B inh: ?

OCc1nnn(-c2cccc(C(F)(F)F)c2)c1CO
  HSD17B inh: 2%

CC1CN(C(=O)C2CCCN2S(=O)(=O)c2ccc(Cl)cc2)CC(C)O1 (stereo not drawn)
  HSD17B inh: 10%

O=C(N1CCOCC1)N1CCN(c2nc(-c3ccc(F)cc3)cs2)CC1
  HSD17B inh: -2%

CN(C)CCCNc1oc(-c2ccc(Cl)cc2)nc1C#N
  HSD17B inh: 32µM*

CCn1cc(C(C)NC(=O)COc2ccc(Cl)cc2C)c(C)n1 (stereo not drawn)
  HSD17B inh: 10%

O=S1(=O)C=CC(Nc2cccc(Cl)c2)C1 (stereo not drawn)
  HSD17B inh: 10%

O=C(NCc1ccco1)Nc1ccc(Br)cc1Cl
  HSD17B inh: -6%

CCC(C(=O)N1CCN(c2cccc(Cl)c2)CC1)c1ccccc1 (stereo not drawn)
  HSD17B inh: -8%

Next compounds follow.
COc1ccc(C2CCCN2C(=O)Nc2ccc(F)cc2)cc1OC (stereo not drawn)
  HSD17B inh: -1%

CN(C)c1ccc(CNC2CC(C)(C)NC(C)(C)C2)cc1
  HSD17B inh: 4%

CC12CCC(C(=O)Nc3cccc(NC(=O)C45CCC(C)(C(=O)O4)C5(C)C)n3)(OC1=O)C2(C)C
  HSD17B inh: -7%

CN1CCN(C(=O)c2ccc(N(Cc3ccccc3Cl)S(C)(=O)=O)cc2)CC1
  HSD17B inh: 5%

COCC(C)NCc1ccccc1C (stereo not drawn)
  HSD17B inh: 4%

CCn1cc(SCC(=O)Nc2cc(C)on2)c2ccccc21
  HSD17B inh: 4%

COc1ccc(OC)c(CNC(=O)C2CCCN(C(=O)N(C)C)C2)c1 (stereo not drawn)
  HSD17B inh: 5%

CCNCCCNCCCNCCCNCC
  HSD17B inh: 7%

CCC/C=C(\CCC)C(NS(=O)(=O)c1ccc(Cl)cc1)c1ccccc1 (stereo not drawn)
  HSD17B inh: -8%

Brc1ccc(-c2ccccc2)cc1
  HSD17B inh: -2%

Cc1occc1C(=O)Nc1nnc(C(F)(F)F)s1
  HSD17B inh: -3%

Cc1cc(NC(=O)c2cc(-c3ccccn3)nc3ccccc23)no1
  HSD17B inh: -4%

Cc1ccc(N2C(=O)c3ccc(N)cc3C2=O)cc1C
  HSD17B inh: -11%

CCCN(CCC)S(=O)(=O)c1ccc(C(=O)Nc2nnc(-c3cc(OC)cc(OC)c3)o2)cc1
  HSD17B inh: 5%

CC1NC2(C(=O)N(Cc3ccccc3)c3ccccc32)C2C(=O)N(c3ccccc3)C(=O)C12 (stereo not drawn)
  HSD17B inh: 1%

CCCCN(CC)S(=O)(=O)c1ccc(C(=O)Nc2nnc(CSC)o2)cc1
  HSD17B inh: -4%

COCCNc1nc(C)nc2c1nc(-c1ccccc1)n2C1CCN(Cc2ccccc2)C1 (stereo not drawn)
  HSD17B inh: 32µM*

c1ccc2c(c1)Oc1ccccc1S2
  HSD17B inh: -6%

CCn1ncc(Cl)c1C(=O)NC(C)c1ccccc1 (stereo not drawn)
  HSD17B inh: 3%

O=C1C2C3C=CC(C3)C2C(=O)N1c1n[nH]c(CCc2ccccc2)n1 (stereo not drawn)
  HSD17B inh: 2%

CCOC(=O)CSc1ccc2nnc(-c3cccs3)n2n1
  HSD17B inh: -6%

O=C(Nc1ccc(Nc2ccccc2)cc1)C1CC1
  HSD17B inh: -8%

CN1CCCC(OC(=O)COc2ccccc2)C1 (stereo not drawn)
  HSD17B inh: 13%

COC(=O)C1C(=O)C2=C(CC1C)NC(=O)CC2c1ccc(O)c(OC)c1 (stereo not drawn)
  HSD17B inh: 7%

Cn1c(=O)n(CCCOc2ccc(Br)cc2)c2ccccc21
  HSD17B inh: -13%

CCCC(=O)Nc1c(C)nn(C(=O)CCC)c1C
  HSD17B inh: 1%

O=C(Cc1cccs1)Nc1cccnc1
  HSD17B inh: -28%

O=C(N1CCN(c2ccccc2)CC1)C12CC3CC(CC(C3)C1)C2
  HSD17B inh: 6%

O=C(CSc1nnnn1-c1ccc2c(c1)OCCO2)N1CCc2ccccc21
  HSD17B inh: 8%

CC(C)NS(=O)(=O)c1ccc(CCC(=O)N2CCOCC2)cc1
  HSD17B inh: 7%

O=C(NCc1ccccc1)NC(=O)c1ccccc1
  HSD17B inh: -14%

Nc1ccccc1OCCOCCOCCOc1ccccc1N
  HSD17B inh: 10%

O=C(OCc1c(Cl)cccc1Cl)c1cccnc1
  HSD17B inh: 1%

O=C(CN1CCN(Cc2ccccc2)CC1)c1ccc(Br)cc1
  HSD17B inh: -11%

CCOC(=O)N1CCC(n2c(=S)[nH]c3cc(OC)c(OC)cc3c2=O)CC1
  HSD17B inh: -3%

Cc1ccccc1C(=O)Nc1cccc(-c2nnc(SCC(=O)O)n2C)c1
  HSD17B inh: -1%

COC(=O)c1ccc(CSc2nnnn2-c2ccccc2)o1
  HSD17B inh: -13%

CCCCNc1nc(C)nc2c1nc(-c1ccccc1)n2CCN(C)C
  HSD17B inh: 32µM*

Cc1c(C(=O)N2CCN(S(C)(=O)=O)CC2)oc2ccccc12
  HSD17B inh: 21%

Cc1ccc(Cl)cc1N1CCN(S(=O)(=O)c2ccc3c(c2)OCCO3)CC1
  HSD17B inh: 0%

The list is partial (hit frequency here may not be typical).
